Compound activity from PubChem BioAssay.
PKD1 kinase inh: inhibitors of human PKD1 kinase, biochemical, fluorescence polarization | Serine/threonine-protein kinase D1 (Homo sapiens), Q15139 | inhibition, %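 (about 10 µM by stock and volumes)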 | 200,000 compounds, 0.056% hits | PKD1 kinase fluorescence polarization assay | AID 797, 2007;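 active = inhibition of 50% or more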;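 note: controls were vehicle for no effect and a reference inhibitor for full effect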
RGS16-Gao: modulators of RGS16 binding to Galphao, primary screen, biochemical, human proteins, multiplexed bead flow cytometry. binding response (% of control), % at 10 µM. Regulator of G-protein signaling 16 (Homo sapiens) + Guanine nucleotide-binding protein …. bead-based flow cytometry RGS16-Galphao binding, fluorescence; actives lie on both sides. AID 1441, 2008. 220,000 compounds, 0.38% hits;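 active = below 25% or above 175%, edge rows of some plates excepted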;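 note: Galphao activated by GDP with aluminum fluoride before binding; 100% = wells without compound and 0% = beads without RGS; some results beyond the cut were filed as inactive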
Target sequence (O15492 whole entry, looked up): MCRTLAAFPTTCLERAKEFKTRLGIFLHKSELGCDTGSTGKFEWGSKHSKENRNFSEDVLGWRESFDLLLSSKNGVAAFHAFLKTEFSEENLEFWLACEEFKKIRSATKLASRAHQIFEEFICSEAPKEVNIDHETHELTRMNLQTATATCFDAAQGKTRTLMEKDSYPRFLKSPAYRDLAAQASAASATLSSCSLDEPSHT
Target sequence (P09471 whole entry, looked up): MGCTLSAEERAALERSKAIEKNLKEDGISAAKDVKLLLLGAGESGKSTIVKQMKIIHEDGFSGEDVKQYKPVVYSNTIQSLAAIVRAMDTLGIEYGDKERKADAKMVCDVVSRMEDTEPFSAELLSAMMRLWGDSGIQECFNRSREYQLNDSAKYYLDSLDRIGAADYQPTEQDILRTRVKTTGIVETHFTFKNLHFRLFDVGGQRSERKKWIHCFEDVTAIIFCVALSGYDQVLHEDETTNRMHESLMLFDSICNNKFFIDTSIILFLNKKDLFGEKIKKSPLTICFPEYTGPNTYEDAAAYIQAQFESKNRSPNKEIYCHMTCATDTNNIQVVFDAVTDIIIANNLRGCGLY
Insulin prom inh: inhibitors of insulin promoter-driven GFP, primary screen, imaging, TRM-6 cells (human fetal islet line), eGFP reporter, cell count; inhibition, % at 2 µM; AID 1273, 2008; 130,000 compounds, 0.9% hits; reporter expression induced with tamoxifen;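 active = inhibition above the mean plus 3 SD, with well images judged a real hit on visual review, cut at about 60% in these data, passing the limit was not always enough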
GALR2 ag: GALR2 receptor agonists, primary screen, cell-based. Galanin receptor type 2 (Homo sapiens), O43603. GALR2-expressing cells, agonist activation read-out. activation, %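 (tested at 5 µM)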. 140,000 compounds, 0.48% hits. AID 803, 2007;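 active = above mean plus 3 SD of all compounds, about 5% in these data, not always enough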;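 note: 0% = vehicle buffer wells and 100% = reference agonist at full effect; tested in CHO reporter cells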
Target sequence (O43603 whole entry, looked up): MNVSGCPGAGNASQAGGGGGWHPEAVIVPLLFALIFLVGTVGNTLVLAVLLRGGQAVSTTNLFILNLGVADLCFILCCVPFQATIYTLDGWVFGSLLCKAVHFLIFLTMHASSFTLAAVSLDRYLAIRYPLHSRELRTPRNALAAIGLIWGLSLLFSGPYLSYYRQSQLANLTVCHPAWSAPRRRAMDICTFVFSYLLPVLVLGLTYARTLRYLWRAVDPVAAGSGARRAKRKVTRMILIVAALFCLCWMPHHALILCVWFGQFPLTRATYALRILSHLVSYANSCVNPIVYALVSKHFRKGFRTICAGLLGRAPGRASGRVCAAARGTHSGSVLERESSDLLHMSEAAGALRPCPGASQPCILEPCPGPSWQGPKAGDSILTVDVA
HSV augment: enhancers of HSV replication in host cells, fold increase, host cell viability | HSV replication augmentation in cells | maximum fold increase | 220,000 compounds, 0.005% hits;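 active = peak rise of 1.5-fold or more in the series; tested in PC3 cells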;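 note: first round at 10 µM; read as green reporter fluorescence; hits show the peak of a series up to 25 µM; 1 = signal of infected wells without compound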
Insulin prom inh cell count: further read-out of Insulin prom inh, marked with its call; normalized cell count, %; measured here: cell count, toxicity; reference of the scale not given here;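 cells exposed to compound for 48 h; stained nuclei by imaging scaled within each plate; lower means fewer cells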
HSV augment primary fold: recorded beside HSV augment, whose call it bears; fold increase; compound at 10 µM; measured here: primary screen fold increase 10 uM; tested in PC3 cells;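 GFP signal in the first replicate; 1 = infected wells without compound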
Starred values were filed as active, the others as inactive; i = inactive; / = not tested or not shown.

SMILES | PKD1 kinase inh | RGS16-Gao | Insulin prom inh | Insulin prom inh cell count | GALR2 ag | HSV augment | HSV augment primary fold
Nc1nc(NCCN2CCOCC2)nc(NCc2ccccc2)c1[N+](=O)[O-] | / | 100 | / | / | / | i | 0.89
CC(C)(C)c1cc(NC(=O)c2cc(F)c(F)c(F)c2F)no1 | -6 | 92 | / | / | -0.1 | i | 0.93
N#CCCn1cc(C(=O)NCc2ccccc2)c(-c2cccs2)n1 | 1 | 99 | -75 | 58 | / | i | 1
O=C(NCCOC(=O)c1ccc(Cl)c(S(=O)(=O)N2CCCCC2)c1)c1ccncc1 | -7 | 109 | -21 | 90 | -1.9 | i | 0.9
O=C(NCc1ccccc1)c1c[nH]c2cc3c(cc2c1=O)OCCO3 | 0 | 74 | -31 | 149 | -1.6 | i | 1
CCOC(=O)c1nnn(-c2nonc2N)c1CSc1nnc(N)s1 | 1 | 105 | -67 | 113 | / | i | 0.99
NNC(=O)c1ccc(Cn2cccn2)o1 | / | 107 | / | / | / | i | 1.1
CCOC(=O)c1c(C)n(C)c2ccc(O)c(S(=O)(=O)c3ccccc3)c12 | -12 | 63 | / | / | -1.4 | i | 1
O=C(COc1ccccc1)Nc1ccc(-c2nnc(-c3ccco3)o2)cc1 | 0 | 96 | / | / | -1.8 | i | 1.1
CCCN1C2CCCC1CC(NC(=O)NC1CCCCC1)C2 (stereo not drawn) | -4 | 112 | / | / | -3.3 | i | 1.1
CCOC(=O)COc1cccc2c(=O)n(CC(N)=O)ccc12 | / | 109 | / | / | / | i | 0.95
CC1=CC2=NC(=O)CC(C)(C(=O)N(CC(=O)NC(C)(C)C)Cc3cccs3)N2C=C1 (stereo not drawn) | 13 | 153 | 13 | 124 | -1.4 | i | 1.1
CCC(=O)N1CCc2cc(S(=O)(=O)NC(CC(C)C)C(=O)N3CCc4ccccc43)ccc21 (stereo not drawn) | 0 | 110 | / | / | -1.2 | i | 0.87
Cc1ccc(C(=O)NCc2ccco2)cc1Br | -5 | 100 | -10 | 116 | -3.1 | i | 0.99
O=C(CNc1cccc2ccccc12)N/N=C/c1ccc([N+](=O)[O-])o1 | 1 | 101 | 13 | 95 | -0.8 | i | 0.82
CCOC(=O)c1cc(-c2ccc3c(c2)OCCO3)n[nH]1 | 3 | 102 | / | / | / | i | 1.1
O=C(NCCNc1nccc(C(F)(F)F)n1)c1cccc(C(F)(F)F)c1 | / | 73 | / | / | / | i | 0.85
COc1ccccc1OCCn1cc(/C=C(\C#N)C(=O)NCc2ccco2)c2ccccc21 | 2 | 107 | -17 | 109 | -0.9 | i | 0.87
CC(C)(C)OC(=O)NC(Cc1ccccc1)C(=O)O (stereo not drawn) | / | 109 | / | / | / | i | 1.1
COc1ccc(OC)c(C(=O)c2coc3ccc(OC)cc23)c1 | -2 | 94 | 33 | 86 | -1.6 | i | 0.98

A portion from further up, for reference:
SMILES | PKD1 kinase inh | RGS16-Gao | Insulin prom inh | Insulin prom inh cell count | GALR2 ag | HSV augment | HSV augment primary fold
CC(C)(C)c1cc(NC(=O)c2cc(F)c(F)c(F)c2F)no1 | -6 | 92 | / | / | -0.1 | i | 0.93
N#CCCn1cc(C(=O)NCc2ccccc2)c(-c2cccs2)n1 | 1 | 99 | -75 | 58 | / | i | 1
O=C(NCCOC(=O)c1ccc(Cl)c(S(=O)(=O)N2CCCCC2)c1)c1ccncc1 | -7 | 109 | -21 | 90 | -1.9 | i | 0.9
O=C(NCc1ccccc1)c1c[nH]c2cc3c(cc2c1=O)OCCO3 | 0 | 74 | -31 | 149 | -1.6 | i | 1
CCOC(=O)c1nnn(-c2nonc2N)c1CSc1nnc(N)s1 | 1 | 105 | -67 | 113 | / | i | 0.99
NNC(=O)c1ccc(Cn2cccn2)o1 | / | 107 | / | / | / | i | 1.1
CCOC(=O)c1c(C)n(C)c2ccc(O)c(S(=O)(=O)c3ccccc3)c12 | -12 | 63 | / | / | -1.4 | i | 1
O=C(COc1ccccc1)Nc1ccc(-c2nnc(-c3ccco3)o2)cc1 | 0 | 96 | / | / | -1.8 | i | 1.1
CCCN1C2CCCC1CC(NC(=O)NC1CCCCC1)C2 (stereo not drawn) | -4 | 112 | / | / | -3.3 | i | 1.1
CCOC(=O)COc1cccc2c(=O)n(CC(N)=O)ccc12 | / | 109 | / | / | / | i | 0.95
CC1=CC2=NC(=O)CC(C)(C(=O)N(CC(=O)NC(C)(C)C)Cc3cccs3)N2C=C1 (stereo not drawn) | 13 | 153 | 13 | 124 | -1.4 | i | 1.1
CCC(=O)N1CCc2cc(S(=O)(=O)NC(CC(C)C)C(=O)N3CCc4ccccc43)ccc21 (stereo not drawn) | 0 | 110 | / | / | -1.2 | i | 0.87
Cc1ccc(C(=O)NCc2ccco2)cc1Br | -5 | 100 | -10 | 116 | -3.1 | i | 0.99
O=C(CNc1cccc2ccccc12)N/N=C/c1ccc([N+](=O)[O-])o1 | 1 | 101 | 13 | 95 | -0.8 | i | 0.82

The listing continues.
SMILES | PKD1 kinase inh | RGS16-Gao | Insulin prom inh | Insulin prom inh cell count | GALR2 ag | HSV augment | HSV augment primary fold
COc1ccc(NC(=S)N2CCN(C(=O)c3ccccc3)CC2)cc1 | 0 | 115 | / | / | / | i | 0.99
CN(C)/C(CN1CCOCC1)=C1\N=C(c2ccccc2)OC1=O | 10 | 112 | 0 | 95 | -4.3 | i | 1.2
CCCCN(CCCC)Cc1ccc(C(=O)NN)o1 | -2 | 103 | -46 | 89 | / | i | 1.1
CCOC(=O)c1ccccc1-c1csc(N)n1 | 1 | 106 | / | / | / | i | 0.95
Cc1ccc(C)c(NC(=O)CN(C)S(=O)(=O)c2cccc3cccnc23)c1 | / | 102 | / | / | / | i | 0.96
OCCC1CN(Cc2cnc(N3CCCC3)s2)CCN1Cc1ccccc1 (stereo not drawn) | 7 | 103 | / | / | / | i | 1.1
COc1cc2c(cc1OC)CN(C(=O)c1cc(S(=O)(=O)N3CCOCC3)ccc1Cl)CC2 | -1 | 100 | / | / | -2.1 | i | 0.82
CCc1nnc(NS(=O)(=O)c2ccc(N/C=C\C(=O)c3ccc(C)cc3)cc2)s1 | -18 | 98 | -11 | 140 | -2.3 | i | 0.99
Clc1ccc(-c2nc3n(n2)Cc2ccccc2-3)cc1 | -4 | 104 | 22 | 97 | -1.2 | i | 1
COc1ccc(S(=O)(=O)N(CC(N)=O)C2CCCCC2)cc1Cl | 6 | 111 | 24 | 130 | -3.3 | i | 1.1
Cn1c(=O)[nH]c(=O)c2c1nc(CN1CCOCC1)n2Cc1ccc(F)cc1 | -13 | 104 | 50 | 84 | -0.6 | i | 0.9
CC(=O)c1c(N2CCCCC2)nc(=S)n(Cc2ccccc2)c1C | -13 | 83 | / | / | 0.9 | i | 1.1
CN(C)CCNC(=O)Nc1ccc([N+](=O)[O-])cc1 | 4 | 107 | -47 | 132 | / | i | 0.9
COc1ccc(S(=O)(=O)N2CCCC2)cc1C(=O)N1CCOCC1 | 1 | 99 | / | / | / | i | 1
CN(C(=O)COc1cc(=O)n(C)c2ccccc12)c1ccc(Cl)cc1 | 4 | 99 | / | / | 0.1 | i | 1
Cc1ccc(-c2nnc(N(C)C(=O)c3ccncc3)s2)cn1 | -5 | 103 | / | / | -3.2 | i | 0.88
O=C(CCCN1C(=O)/C(=C/c2ccco2)SC1=S)Nc1cccc(C(=O)O)c1 | / | 93 | / | / | / | i | 1.3
O=C(CCc1nnc(Cc2ccc3c(c2)OCO3)o1)N(CC1CCC1)CC1CCCO1 (stereo not drawn) | / | 103 | / | / | / | i | 0.91
O=C(CN1C(=O)S/C(=C/c2cccs2)C1=O)N1CCOCC1 | -8 | 101 | 32 | 156 | -0.8 | i | 1
O=C(N/N=C/c1ccc2nccnc2c1)c1ccccc1O | / | 104 | / | / | / | i | 0.86
COc1cc(Cl)c(C)cc1NC(=S)NN | -2 | 85 | 29 | 144 | / | i | 0.91
FC(F)(F)c1cccc(/C=N/NC(=S)NC2CCCCC2)c1 | -1 | 112 | -192 | 27 | / | i | 0.91
CCOc1cc(C(c2c(C)[nH][nH]c2=O)c2c(C)[nH][nH]c2=O)ccc1OC(=O)c1cccc([N+](=O)[O-])c1 | 2 | 102 | 30 | 67 | -0.5 | i | 0.98
Cc1cc(C(=O)CSc2nc3ccccc3n2CCC#N)c(C)n1Cc1cccs1 | 1 | 92 | -11 | 152 | -1.4 | i | 0.91
COc1ccc(N=Nc2n(C)c3ccccc3[n+]2C)cc1 | / | 107 | / | / | / | i | 1.2
Cc1ccnc(N2CCCC(C(=O)Nc3nnc(C)s3)C2)n1 (stereo not drawn) | 0 | 17 | -103 | 21 | -0.9 | i | 0.91
COCCNC(=O)CCCCCNS(=O)(=O)c1ccc(C)cc1 | 5 | 105 | / | / | -0.5 | i | 0.89
C/C(=N\OCc1cccc(C(=O)O)c1)c1ccc(Cl)cc1 | / | 101 | / | / | / | i | 0.88
COc1ccc(C(=O)Nc2ccc3c(c2)OCO3)cc1OC | -18 | 104 | / | / | -0.6 | i | 0.83
Cc1nn(Cc2ccc([N+](=O)[O-])cc2)c(=O)n1-c1ccccc1 | 10 | 106 | -23 | 100 | -1.2 | i | 0.89
O=C(CSc1nc2ccccc2o1)Nc1cc(C(F)(F)F)ccc1N1CCOCC1 | -10 | 104 | -5 | 122 | -3.0 | i | 0.98
CC(C)=CC(=O)OCC(=O)Nc1nc(C)c(Cl)cc1Cl | -15 | 108 | -39 | 70 | -2.0 | i | 0.91
CC(N=C(NS(=O)(=O)c1ccc(Cl)cc1)c1ccccc1)C(=O)O (stereo not drawn) | 13 | 103 | 58 | 120 | -0.4 | i | 0.89
Cc1ccc(NC(=O)c2cc(S(=O)(=O)N3CCOCC3)c(Br)s2)cc1 | 4 | 116 | -31 | 123 | -0.3 | i | 0.92
COc1ccc(S(=O)(=O)N(CCc2ccccc2)CC(=O)O)cc1 | -4 | 101 | -34 | 135 | -2.0 | i | 0.79
CCOC(=O)c1ccc(NCc2ccc(N(C)C)cc2)cc1 | -7 | 103 | 36 | 66 | -0.6 | i | 0.82
O=C(NCc1ccco1)c1ccc(Cl)c(S(=O)(=O)N2CCc3ccccc32)c1 | -6 | 96 | / | / | 0.6 | i | 0.91
Cc1cc(C)nc(NC(=O)CSc2ncccn2)n1 | -11 | 104 | 56 | 129 | / | i | 0.83
CC1CCN(C(=O)CSc2nc3ccccc3[nH]2)CC1 | -12 | 98 | / | / | -0.8 | i | 0.96
CC(=O)/C(C(=N)N1CCN(C(c2ccccc2)c2ccccc2)CC1)=C(\C)O | -5 | 103 | -3 | 115 | -1.3 | i | 1
COC(=O)c1ccccc1NC(=S)N1CCN(c2ccccn2)CC1 | 6 | 101 | / | / | / | i | 0.91
COc1ccc2[nH]cc(S(=O)(=O)c3ccc(C)cc3)c2c1 | -6 | 103 | -20 | 70 | / | i | 1.2
FC(F)(F)c1ccc(C2Nc3cccc4cccc(c34)N2)cc1 | -10 | 241 | / | / | / | i | 0.91
CC(=O)/C(=C/c1ccccc1)C(=O)Nc1ccccc1C | -4 | 103 | / | / | / | i | 0.97
CN(CC(CC(=O)Nc1nncs1)c1ccccc1)S(=O)(=O)c1ccccc1 (stereo not drawn) | 3 | 102 | / | / | -2.3 | i | 1.5
CCn1c(SCC(=O)N/N=C/C(C)=C/c2ccco2)nnc1-c1ccccc1 | 8 | 94 | / | / | -3.4 | i | 0.79
CCOc1ccc(N=CC2=C(O)CC(C)(C)CC2=O)cc1 | -2 | 102 | -221 | 61 | -2.3 | i | 0.97
COc1ccc(CSCC(=O)NN=C2CCN(C)CC2)cc1 | -5 | 100 | / | / | / | i | 0.9
CCOc1ccc(CO/N=C/c2c(C)[nH]c(=O)[nH]c2=O)cc1 | -2 | 98 | 0 | 86 | / | i | 0.89
NC(N)=NS(=O)(=O)c1ccc(NC(=S)NC(=O)c2ccc(Br)cc2)cc1 | -7 | 104 | / | / | / | i | 0.87
N#Cc1ccc(C(=O)Nc2cc(S(=O)(=O)Nc3ccc(Cl)cc3)ccc2N2CCCCC2)cc1 | 0 | 81 | 19 | 116 | -2.4 | i | 0.89
COc1ccccc1NC(=O)C1CCCN(S(=O)(=O)c2cccc3nsnc23)C1 (stereo not drawn) | -1 | 98 | -22 | 131 | 0.7 | i | 1
Cc1ccc(NNC(=O)C2CCC2)cc1C | / | 90 | / | / | / | i | 1.1
